Compound activity (PubChem BioAssay)
Six1-Eya2 blk: inhibitors of human Six1/Eya2 interaction | Q15475+O00167 | activity change, % (concentration not given with the values) | 0.56% of 360,000 active | AlphaScreen GST-Six1/His-Eya2 binding, biochemical; active compounds read low; control for the full effect not named in the record; in the data active = activity change below about -65%; inconclusive = about -30% to -65%; inactive = above about -30%; note: % is set by controls: 0 for no effect and ±100 for the full control effect
Target sequence (O00167 whole entry, looked up): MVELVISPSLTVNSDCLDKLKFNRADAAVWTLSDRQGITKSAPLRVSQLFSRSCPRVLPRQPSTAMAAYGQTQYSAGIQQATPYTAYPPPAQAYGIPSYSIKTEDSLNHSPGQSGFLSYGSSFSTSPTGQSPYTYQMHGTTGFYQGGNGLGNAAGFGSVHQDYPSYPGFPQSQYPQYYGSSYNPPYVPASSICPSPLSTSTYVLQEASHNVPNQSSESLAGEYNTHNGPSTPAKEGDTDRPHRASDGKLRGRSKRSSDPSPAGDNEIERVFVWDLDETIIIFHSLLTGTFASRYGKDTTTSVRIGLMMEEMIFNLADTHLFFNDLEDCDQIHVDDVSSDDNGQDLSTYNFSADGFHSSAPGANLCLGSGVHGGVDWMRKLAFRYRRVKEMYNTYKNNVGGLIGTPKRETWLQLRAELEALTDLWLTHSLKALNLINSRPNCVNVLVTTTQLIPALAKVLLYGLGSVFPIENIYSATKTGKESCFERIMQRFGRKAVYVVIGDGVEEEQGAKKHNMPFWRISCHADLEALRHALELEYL
Target sequence (Q15475 whole entry, looked up): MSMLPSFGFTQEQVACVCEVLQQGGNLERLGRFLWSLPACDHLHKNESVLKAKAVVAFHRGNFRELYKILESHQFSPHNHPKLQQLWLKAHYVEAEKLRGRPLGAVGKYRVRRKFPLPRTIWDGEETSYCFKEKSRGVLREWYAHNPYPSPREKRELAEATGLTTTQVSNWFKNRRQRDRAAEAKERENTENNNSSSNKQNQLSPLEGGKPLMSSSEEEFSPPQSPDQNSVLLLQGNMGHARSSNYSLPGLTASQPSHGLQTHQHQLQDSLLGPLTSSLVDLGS
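Six1/Eya2 binding was read as AlphaScreen signal after compounds were pinned into GST-Six1 plus His-tagged Eya2 (5X stock 250/500 nM) in pH 8.0 Tris/NaCl/TCEP buffer, beads added, then incubated 1 h, 37 C, dark.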
CtBP-E1A blk: inhibitors of CtBP/E1A interaction. activity change, % (concentration not given with the values). AID 651724. AlphaScreen GST-E1A/His-CtBP binding, 1536-well; active compounds read low; control for the full effect not named in the record. 0.49% of 340,000 active; in the data active means activity change below about -65%; inconclusive means about -30% to -65%; inactive means above about -30%; note: % is set by controls: 0 for no effect and ±100 for the full control effect
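In 5 uL wells, 23 nL compound meets equimolar GST-E1A and His-CtBP (5X stock 125 nM each) for 2 h, 37 °C. Beads (5X, 50 ug/mL) then 1 h, 37 °C, dark.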
PINK1 modulator: modulators of PINK1 expression; PINK1 immunofluorescence, high-content cytometry, 24 h; Potency, µM (doses to about 76.6 µM), for the others: at the top dose activation (PINK1 increase), most hits filed as activators; 0.2% of 410,000 active; AID 624263; active = well fitted activation curve with a large enough effect; inconclusive = small, poorly fitted or top-dose-only effect; inactive = flat fitted curve, though single readings scatter; cell line not stated here;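 note: potency is the fitted concentration of half-maximal effect; % of control where 0% means no effect; nearly all actives have a fitted effect of over 65% in size; a mitochondrial uncoupler was the plate control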
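Fluorescence from anti-PINK1 antibody, together with nuclear and cell stains, was scanned on a laser-scanning cytometer. Before staining, stable-line cells were incubated 24 hours with compounds at 5 concentrations; primary antibody 12 h at 10 degrees C.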
TRPML1 inh: inhibitors of human TRPML1 channel. Q9GZU1. TRPML1-inducible cells, Ca2+ dye fluorescence, FDSS; active compounds read low; inhibition of EC80 agonist-evoked calcium signal. activity change, negative = inhibition, % (concentration not given with the values). 0.02% of 390,000 active; in the data active means activity change below about -50%; inconclusive means about -30% to -50%; inactive means above about -30%;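 note: stimulus is agonist 54-4 at its EC80 concentration; % is set by controls: 0 for no effect and ±100 for the full control effect; the text of the record puts the active cut at -80%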
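Tet-induced TRPML1-DL cells loaded with Ca8 no-wash calcium dye were read kinetically on FDSS. Compound addition was followed by EC80 agonist 54-4 (4 uM final); inhibition was read over 110 s.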
TRPML1 agonist: human mucolipin-1 channel agonism; Q9GZU1; TRPML1-expressing cells, Ca2+ dye fluorescence, FDSS; host cell line not named in the record; reference of the full effect not given here; activation, % (concentration not given with the values); 0.12% of 410,000 active; AID 624414; in the data active = activation above about 50%; inconclusive = about 30% to 50%; inactive = below about 30%; note: 0% is about no effect; the text of the record puts the active cut at 80%
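Agonist activity was taken from a 110 s kinetic Ca2+ dye read on the FDSS after pinning compounds onto TRPML1-DL cells. The cells were seeded at 1,500/well with Tet inducer, incubated about 16 h, then dye-loaded at room temperature.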
D2 agonist: activates the human D2 dopamine receptor. P14416. DiscoveRx PathHunter D2 beta-arrestin, luminescence, 90 min; 100% = 57 uM dopamine signal. activation, % (test concentration not listed). 0.084% of 360,000 active. AID 624465; in the data active = activation above about 40%; inconclusive = about 15% to 40%; inactive = below about 15%; note: compound concentration not given in the record; the text of the record calls up to 30% inactive
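Agonist mode: compounds alone added to overnight-plated D2 PathHunter cells for 90 min at 37 C, with 57 uM final dopamine (EC100) defining full response. Beta-arrestin recruitment detected by chemiluminescent reagent, read after 1 h at ambient temperature.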
Starred values were filed as active, the others as inactive; ? = inconclusive; / = no result given; & = joins results of further samples; [ ] = remark or other dose.

Labels used below: A = Six1-Eya2 blk; B = CtBP-E1A blk; C = PINK1 modulator; D = TRPML1 inh; E = TRPML1 agonist; F = D2 agonist
Molecule: O=C(CSc1nnc(NC(=O)c2ccco2)s1)NC1CCCCC1
  A = -5; B = -1; C = -1.7%; D = 7; E = -0.7; F = -2.4

Molecule: Cc1occc1-c1nnc(SCC(=O)Nc2nccs2)n1CCc1ccccc1
  A = -11; B = -6; C = -1.5%; D = -2; E = 0.6; F = -2.9

Molecule: CCOC(=O)c1cccc(NC(=O)Cn2c(CC(=O)NC)nc3ccccc32)c1
  A = 0; B = -11; C = ?; D = -14; E = 0.7; F = 4.3

Molecule: N#CC1=C(N)Oc2nc[nH]c(=O)c2C1c1cccs1 (stereo not drawn)
  A = 14; B = /; C = 1.3%; D = 7; E = -0.4; F = -3.7

Molecule: O=C(N/N=C\c1cc([N+](=O)[O-])ccc1N1CCOCC1)c1ccccn1
  A = 0; B = 2; C = -1.0%; D = 5; E = -0.2; F = 0.6

Molecule: CCn1nc(C)c(CN2CCC(n3nccc3NC(=O)c3ccc4c(c3)OCO4)CC2)c1C
  A = 8; B = 11; C = -0.3%; D = 3; E = 0.1; F = -2.9

Molecule: CCOC(Cn1ccc(=O)[nH]c1=O)OCC
  A = 0; B = 4; C = 1.5%; D = -11; E = -0.6; F = -2.6

Molecule: CCOC(=O)C(=Nc1ccccc1)NO
  A = 3; B = 1; C = -0.6%; D = -9; E = -0.4; F = -2.2

Molecule: Cc1cc(=O)oc2cc(OCC(=O)N3CCCc4ccccc43)ccc12
  A = -3; B = -1; C = -0.4%; D = 3; E = 0.3; F = -1.9

Molecule: CCCN(CCC)C(=O)CC(c1ccccc1)C1CCOC(C)(C)C1 (stereo not drawn)
  A = -8; B = /; C = 2.8%; D = 12; E = 1.0; F = -4.2

2 entries from above, with two lines to a compound:
The line under a structure holds: Six1-Eya2 blk | CtBP-E1A blk | PINK1 modulator | TRPML1 inh | TRPML1 agonist | D2 agonist
CCOC(=O)C(=Nc1ccccc1)NO
    3 | 1 | -0.6% | -9 | -0.4 | -2.2
N#CC1=C(N)Oc2nc[nH]c(=O)c2C1c1cccs1 (stereo not drawn)
    14 | / | 1.3% | 7 | -0.4 | -3.7

(next part)
Labels used below: A = Six1-Eya2 blk; B = CtBP-E1A blk; C = PINK1 modulator; D = TRPML1 inh; E = TRPML1 agonist; F = D2 agonist
Molecule: Cc1ccc(N2C(=O)c3cccc([N+](=O)[O-])c3C2=O)cc1C
  A = -11; B = 0; C = 1.7%; D = 30; E = -1.0; F = 12

Molecule: c1ccc(CCn2c3ccccc3c3nnc(SCc4ccc5nonc5c4)nc32)cc1
  A = 1; B = 7; C = ?; D = 51; E = 0.9; F = 2.3

Molecule: O=C(CSc1nncn1-c1cccnc1)N(c1ccccc1)c1ccccc1
  A = 3; B = -1; C = 1.9%; D = 7; E = 0.7; F = -3.4

Molecule: Cc1cccc(NC(=O)CSc2ccc(-c3sc(-c4ccccc4)nc3C)nn2)c1C
  A = /; B = /; C = 0.2%; D = -9; E = 0.1; F = /

Molecule: CCC(=O)c1cc2c(C)cc(=O)oc2c(C)c1OC(=O)C(C)C
  A = 9; B = -2; C = -2.5%; D = 17; E = 0.5; F = -1.7

Molecule: O=C(N/N=C/c1c[nH]c2ccccc12)c1cccc(Cl)c1
  A = -7; B = /; C = 2.1%; D = -8; E = 1.7; F = -4.2

Molecule: Cc1cc(N=Nc2ccc(C)c(N=Nc3cc(C)c(N)cc3N)c2)c(N)cc1N
  A = ?; B = /; C = 0.3%&0.8%; D = 10; E = 3.6&-1.0; F = 1.9

Molecule: Cc1ccc(OCc2cc(C(=O)NC(C)Cc3cccc(C)n3)no2)cn1 (stereo not drawn)
  A = 2; B = 2; C = 0.7%; D = -13; E = -1.0; F = -2.3

Molecule: O=C(COC(=O)C1CCCO1)Nc1cccc(C(F)(F)F)c1 (stereo not drawn)
  A = 1; B = -1; C = -2.1%; D = -10; E = 4.0; F = -2.1

Molecule: CC(C)CCNC(=O)CCc1nnc2n(CCCOC(C)C)c(=O)c3ccccc3n12
  A = 1; B = -1; C = -0.2%; D = 5; E = -1.3; F = -4.0

Molecule: COc1cccc(CN(C)C(=O)c2cc(-c3ccc(F)cc3)nc3ccccc23)c1
  A = 1; B = 3; C = -1.2%; D = 50; E = 2.6; F = 13

Molecule: Cc1nc2cccnc2n1-c1cccc(C(=O)NCCc2ccc(Cl)cc2)c1
  A = /; B = /; C = 0.8%; D = 11; E = -0.2; F = /

Molecule: CC(C)c1ccc(NC(=S)N2CCN(C)CC2)cc1
  A = 1; B = 0; C = 0.2%; D = 0; E = 0.0; F = -19

Molecule: CN(C)Cc1ccccc1Sc1ccc2c(c1)CCCC2
  A = -12; B = -16; C = 9.8%; D = -5; E = 2.2; F = -3.7

Molecule: CCN(CC)C(=O)Cn1cc(S(=O)(=O)CC(=O)Nc2cccc(NC(C)=O)c2)c2ccccc21
  A = 8; B = 4; C = -0.5%; D = 20; E = -0.4; F = 0.4

Molecule: CC1CN(c2ccc(Cl)nn2)CC(C)O1 (stereo not drawn)
  A = 0; B = 6; C = 1.0%; D = -20; E = -0.1; F = -3.4

Molecule: Cc1ccc(S(=O)(=O)c2nc(NN(C)C)sc2Cl)cc1
  A = 5; B = 3; C = 6.1%; D = 13; E = 3.5; F = 2.8

Molecule: Cc1cccc(NS(=O)(=O)c2ccc(-n3cccn3)cc2)c1C
  A = 0; B = 0; C = 5.8%&2.3%; D = 13&6; E = 3.0&0.2; F = 4.9

Molecule: N#C/C(=C/c1ccc(-c2ccc([N+](=O)[O-])cc2)o1)c1nnc(N2CCOCC2)n1-c1ccccc1
  A = 8; B = 1; C = 12%; D = 2; E = 4.8; F = 0.6

Molecule: NS(=O)(=O)c1ccc(CCNC(=O)COC(=O)Cc2ccc([N+](=O)[O-])cc2)cc1
  A = 1; B = /; C = -0.5%; D = 12; E = 0.3; F = 0.2

Molecule: CCOc1ccc(NC(=O)c2ccc(NC(=O)CCS(=O)(=O)c3cccs3)cc2)cc1
  A = /; B = /; C = 3.3%; D = -2; E = -0.7; F = /

Molecule: Cc1c(C2C(C#N)=C(N)N(c3ccccc3C#N)C3=C2C(=O)CCC3)cnn1C (stereo not drawn)
  A = 3; B = -3; C = -1.8%; D = 11; E = 0.8; F = 1.6

Molecule: CC(C)C[C@@H](CSc1ccc(Br)cc1)N1CCN(C)CCC1=O
  A = -2; B = -3; C = 1.0%; D = 13; E = -0.6; F = 0.8

Molecule: CC1Cc2ccccc2N1C(=O)CSc1nc2c(c(=O)n(C)c(=O)n2C)n1Cc1ccccc1 (stereo not drawn)
  A = 2; B = 0; C = 1.2%[38.3 µM]; D = 24; E = 2.7; F = -2.8

Molecule: CCOC(=O)N1CCC(N2Cc3cccc(C(=O)Nc4c(C)cccc4CC)c3C2=O)CC1
  A = -5; B = 1; C = 0.1%; D = 12; E = 0.5; F = 6.0

Molecule: OC[C@@H]1CN(Cc2ccc(F)cc2)C[C@H](n2cnc3c(N4CCOCC4)ncnc32)O1
  A = 14; B = 25; C = -0.5%; D = /; E = -0.4; F = -3.1

Molecule: COC(=O)COc1ccc(-c2nccc(-c3ccc(Br)cc3)n2)cc1
  A = -3; B = 6; C = 5.5%; D = 12; E = 0.1; F = -1.0

Molecule: O=C1NC(=Nc2ccccc2)S/C1=C/c1cccs1
  A = -11; B = /; C = 15%; D = 5; E = -1.3; F = -6.9

Molecule: CCCc1cc(=O)oc2cc(C)cc(OCC(=O)N3CCC(C(N)=O)CC3)c12
  A = 7; B = 7; C = 0.7%; D = /; E = /; F = 5.1

Molecule: CC(C)(C)c1ccc(C(=O)N2CCN(C(=O)c3cccs3)CC2)cc1
  A = 4; B = 5; C = -2.9%; D = 22; E = 0.1; F = -3.8

Molecule: O=S(=O)(/C=C/c1ccccc1)N1CCOCC1
  A = 2; B = 10; C = 1.4%; D = 27; E = -0.5; F = 4.3

Molecule: COc1cc([N+](=O)[O-])ccc1NC(=O)CC1SC(=Nc2ccc(F)cc2)N(CCC2=CCCCC2)C1=O (stereo not drawn)
  A = -20; B = -15; C = -0.5%; D = -4; E = -0.3; F = -4.4

Molecule: Cc1ccc(-c2onc(C)c2C)cc1S(=O)(=O)N1CCOc2ccccc21
  A = 3; B = 4; C = 2.0%; D = -4; E = 0.2; F = 5.3

Molecule: Cc1c(N=Cc2ccc[nH]2)c(=O)n(-c2ccccc2)n1C
  A = -2; B = 3; C = -2.0%[38.3 µM]; D = -2; E = 0.9; F = -0.5

Molecule: CC1CCCC(C)N1CC(O)Cn1c2ccccc2c2ccccc21 (stereo not drawn)
  A = -1; B = /; C = 2.2%; D = /; E = /; F = 2.9

Molecule: Cc1nc2ccc(S(=O)(=O)NCC(=O)NC(C)c3ccccc3)cc2s1 (stereo not drawn)
  A = -7; B = 5; C = 1.0%; D = -4; E = -0.6; F = -3.5

Molecule: CCOC(=O)c1ccc(N=c2sc(C(=O)OC)cc(=O)n2C2CC2)cc1
  A = 0; B = 6; C = 11%; D = -7; E = 1.2; F = -2.5

Molecule: COc1ccc(S(=O)(=O)N(CC(=O)NCc2ccc(C)cc2)c2ccc(Cl)cc2)cc1
  A = /; B = /; C = 12%; D = -13; E = 0.3; F = /

Molecule: CCc1ccccc1-n1ncc(C(=O)Nc2ccc(OC)cc2)c1C
  A = -12; B = -9; C = 2.2%; D = -6; E = 1.2; F = -4.8

Molecule: CC(C)(C)OC(=O)N1CCC(c2c(C(=O)N3CCCCC3)cnn2-c2ccc(F)cc2F)CC1
  A = /; B = /; C = -0.4%; D = -12; E = 0.3; F = /

Molecule: O=C(NNC(=O)c1ccncc1)Nc1ccccc1
  A = 2; B = 6; C = 4.6%; D = -1; E = -0.2; F = 2.4

Molecule: O=C(COC(=O)Cc1ccccc1F)NNC(=O)c1ccc([N+](=O)[O-])cc1
  A = 4; B = -1; C = -2.6%; D = 24; E = -0.3; F = 0.9

As a working copy, 6 of the compounds above.
Labels used below: A = Six1-Eya2 blk; B = CtBP-E1A blk; C = PINK1 modulator; D = TRPML1 inh; E = TRPML1 agonist; F = D2 agonist
Molecule: O=S(=O)(/C=C/c1ccccc1)N1CCOCC1
  A = 2; B = 10; C = 1.4%; D = 27; E = -0.5; F = 4.3

Molecule: COc1cc([N+](=O)[O-])ccc1NC(=O)CC1SC(=Nc2ccc(F)cc2)N(CCC2=CCCCC2)C1=O (stereo not drawn)
  A = -20; B = -15; C = -0.5%; D = -4; E = -0.3; F = -4.4

Molecule: Cc1ccc(-c2onc(C)c2C)cc1S(=O)(=O)N1CCOc2ccccc21
  A = 3; B = 4; C = 2.0%; D = -4; E = 0.2; F = 5.3

Molecule: Cc1c(N=Cc2ccc[nH]2)c(=O)n(-c2ccccc2)n1C
  A = -2; B = 3; C = -2.0%[38.3 µM]; D = -2; E = 0.9; F = -0.5

Molecule: CC1CCCC(C)N1CC(O)Cn1c2ccccc2c2ccccc21 (stereo not drawn)
  A = -1; B = /; C = 2.2%; D = /; E = /; F = 2.9

Molecule: Cc1nc2ccc(S(=O)(=O)NCC(=O)NC(C)c3ccccc3)cc2s1 (stereo not drawn)
  A = -7; B = 5; C = 1.0%; D = -4; E = -0.6; F = -3.5
